VDR inh: inhibitors of human vitamin D receptor | Potency, µM, without a hit: max response, negative = inhibition, actives largely listed as inhibitors | VDR-SRC2-3 peptide fluorescence polarization, 2 h | actives 0.93% (n = 400,000) | P11473; active = well fitted inhibition curve with a large enough effect; inconclusive = small, poorly fitted or top-dose-only effect, or another doubt; inactive = no such curve, though single readings can be large or run the other way; also: series mostly up to about 120 µM
Target sequence (P11473 whole entry, looked up): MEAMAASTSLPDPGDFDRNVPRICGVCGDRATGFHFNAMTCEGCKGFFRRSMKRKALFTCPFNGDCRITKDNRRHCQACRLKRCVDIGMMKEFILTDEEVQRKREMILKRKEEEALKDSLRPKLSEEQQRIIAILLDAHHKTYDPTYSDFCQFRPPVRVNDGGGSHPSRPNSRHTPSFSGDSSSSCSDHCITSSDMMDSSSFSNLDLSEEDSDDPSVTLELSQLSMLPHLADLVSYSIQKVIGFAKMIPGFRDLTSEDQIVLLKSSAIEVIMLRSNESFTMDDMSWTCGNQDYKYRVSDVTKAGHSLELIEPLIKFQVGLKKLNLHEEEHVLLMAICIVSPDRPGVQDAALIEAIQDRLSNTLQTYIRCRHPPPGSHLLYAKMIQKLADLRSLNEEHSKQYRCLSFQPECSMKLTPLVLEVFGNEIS
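Measured by FP: displacement of SRC2-3 coactivator peptide from VDR by library compounds, following a two-hour ambient incubation.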
* marks the source's active call; other numbers are inactive results; ? = inconclusive; & = joins results of further samples; [ ] = remark or other dose. % is scaled to controls: 0 for no effect and ±100 for the full control effect; potency is read from the fitted curve at half-maximal effect.

SMILES	VDR inh
Cc1ccc(C(=O)C(SC(C)(C)C)n2cncn2)cc1 (centres undefined)	8.9%
COC(=O)C1=C(NC(=O)c2ccccc2[N+](=O)[O-])CCS1	-8.5%
COc1ccc(-n2cc(-c3ccc(OC)c(OC)c3)[nH]c2=S)cc1	-14.8%
COCCNC(=O)c1cc2nc3c(c(C(F)(F)F)n2n1)CCc1ccccc1-3	-11.2%
CCOC(=O)c1[nH]c(C)c(C(=O)NCc2ccc(F)cc2)c1C	3.7%
COc1ccc(S(=O)(=O)N2CCN(C3CCCC(C)C3)CC2)cc1 (centres undefined)	11.1%
COC(=O)Cc1c(C)c2ccc(OCC(=O)NCc3ccc4c(c3)OCO4)cc2oc1=O	14.4%
O=C(Cn1c(=O)oc2ccccc21)Nc1nc(-c2ccccc2)cs1	4.6%
Cc1ccc(S(=O)(=O)Nc2cc3c(cc2C)n(C)c(=O)c(=O)n3C)c(C)c1	7.6%
O=C(NCc1ccc(F)cc1)C(C(=O)NCc1ccc(F)cc1)c1ncc(C(F)(F)F)cc1Cl	18.1%
O=C(c1cc([N+](=O)[O-])ccc1Cl)N1CCN(Cc2ccccc2)CC1	-12.8%
CC1CCCN(S(=O)(=O)c2cc(C(=O)NCCc3ccc(S(N)(=O)=O)cc3)ccc2Cl)C1 (centres undefined)	0.2%
O=C(NCCc1ccccc1)C(=O)c1cn(CC(=O)N2CCCC2)c2ccccc12	-10.9%
COC(=O)Cc1ccc(NC(=S)N2CCN(C(=O)C3CCCO3)CC2)cc1 (centres undefined)	-11.2%
N=c1n(Cc2ccccc2Cl)c2ccccc2n1CC(O)c1ccco1 (centres undefined)	-14.1%
Cc1cccc(NC(=O)Cn2ncc3c4ccccc4n(Cc4ccccc4)c3c2=O)c1C	7.0%
CC1(C)Cc2c(c(N3CCOCC3)nc3snc(Br)c23)CO1	-20.3%
O=C(CCS(=O)(=O)c1ccccc1)NC12CC3CC(CC(C3)C1)C2	9.4%
Cc1cc2c(c(SCC(N)=O)n1)C(=O)OC2	-22.1%
Cc1nnc(SCC(=O)NC2CCCC2)s1	0.1%
O=C(Cc1cccs1)Nc1ccccn1	-23.8%
Cc1oc(C(N)=O)cc1COc1ccc(C(N)=O)cc1	-5.6%
CC(=O)Nc1ccc(SC[C@H](Cc2ccccc2)N2CC[C@@H](O)CCC2=O)cc1	-4.0%
O=C(NC(O)C(=O)c1ccc(F)cc1)c1ccc(F)cc1 (centres undefined)	-25.8%
O=C(O)C1C2CCC(C2)C1C(=O)Nc1nc2ccccc2s1 (centres undefined)	-1.7%
Cc1cccc(C(=O)Nc2nnc(SCC(=O)Nc3ccc4c(c3)oc3ccccc34)s2)c1	-4.4%
Cc1ccc(S(=O)(=O)/N=C(\N)Nc2nc(C)c3cc(C)c(C)cc3n2)cc1	3.7%
CCOC(=O)C1CCN(CCC(=O)Nc2ccc(OC)cc2)CC1	4.3%
Cc1ccc(NC(CC(=O)c2ccccc2)c2ccc(F)cc2)cc1 (centres undefined)	-0.7%
CCC(Sc1nnc(C)n2c1cc1occc12)C(=O)Nc1ccccc1OC (centres undefined)	10.1%
CC1CC(=O)N(c2ccc(NCCc3ccccc3)c([N+](=O)[O-])c2)C1=O (centres undefined)	-8.2%
COc1ccc(CN2CCN(Cc3cn(C)nc3-c3ccccc3)CC2CCO)c(C)c1C (centres undefined)	-18.8%
CCOc1ccc(Br)cc1S(=O)(=O)N1CCCN(C)CC1	0.9%
Cc1nc2ccccc2c(C)c1CC(=O)N(CC(C)C)c1c(N)n(Cc2ccccc2)c(=O)[nH]c1=O	-1.1%
CC1CN(C)C(c2ccccc2)C(C)C12NC(=O)NC2=O (centres undefined)	5.7%
CCN(CC)C(=O)CSc1nnc(-c2ccncc2)n1N	-4.7%
Cc1c(Cl)cccc1NC(=S)NCc1ccco1	-6.9%
COc1cc(CNC2CCC(C)C2)cc(OC)c1 (centres undefined)	-2.1%
Cc1ccc2nc(-c3c[nH]c4ccccc34)c(Nc3ccc(F)cc3)n2c1	-24.3%
CCc1ccc(NC(=O)c2ccc(OC)c([N+](=O)[O-])c2)cc1	4.8%
C=CCSc1nnc(N2C(=O)C(O)=C(C(=O)c3ccco3)C2c2ccc(F)cc2)s1 (centres undefined)	?
COCCCNC(=O)CC(=O)N/N=C\c1ccc(SC)cc1	24.4%
CCCCCn1c(SCC#N)nc2cc(C(=O)NCC3CCCO3)ccc2c1=O (centres undefined)	8.2%
COCCNC(=O)Cn1cc(/C=C(\C#N)C(=O)NC2CCCC2)c2ccccc21	1.2%
Cc1cccc(C(=O)NCC(=O)OCC(=O)N2CCN(S(=O)(=O)c3ccc(C)cc3C)CC2)c1	-5.3%
O=[N+]([O-])c1ccccc1/C=C/C=N/n1c(-c2ccco2)n[nH]c1=S	1.8%
Cc1cc(NC(=O)CSc2cc(C)c3ccccc3n2)no1	-9.9%
Cc1ccc(C)c(N=Nc2ccc(O)c3ncccc23)c1	-10.3%
O=c1oc2c(CN3CCOCC3)c(O)ccc2c2c1CCCC2	5.5%
COc1cc(CC(=O)NCC2COc3ccccc3O2)cc(OC)c1OC (centres undefined)	-5.3%
O=C1NN(c2ccccc2)C(=O)/C1=C\c1ccc(-c2cc([N+](=O)[O-])ccc2O)o1	-2.3%
C=CCn1c(SCC(=O)Nc2ccc(F)cc2)nc2cc(C(=O)O)ccc2c1=O	-13.3%
Cc1cc(Cl)c(OCCCNCc2ccccc2)c(Br)c1	-10.7%
Cc1ccccc1CSc1nc2c(sc3ccccc32)c(=O)n1CCCC(=O)NCCCOC(C)C	-20.7%
Cc1ccccc1NC1=NS(=O)(=O)c2ccccc21	1.6%
COc1ccc(S(=O)(=O)N2CCOCC2)cc1NC(=O)Cc1coc2cc(C)c(C)cc12	27.0%
COc1cc(CN(C(=O)c2ccco2)c2ccc(C)cc2)ccc1O	-12.0%
O=C(Cc1cccc2ccccc12)Nc1ccc(OC(F)F)c(Cl)c1	-18.9%
CCC1CCCCN1Cc1cc(OC)c(O)c([N+](=O)[O-])c1 (centres undefined)	-2.0%
Cc1ccc(C(=O)c2oc3ccccc3c2NC(=O)c2nc(S(C)(=O)=O)ncc2Cl)cc1F	-1.0%

The listing continues.
SMILES	VDR inh
COc1cc(OC)c2c(-c3cccc(-c4ccc(NC(C)=O)cc4)c3)cc(=O)oc2c1	-14.6%&2.3%
COc1ccc(C(=O)O/N=C(\N)c2ccccc2)c(OC)c1	-8.4%
O=C1NN(c2cccc(Br)c2)C(=O)/C1=C/c1cccs1	?
CCCCCCCn1c(=N)n(CC(O)c2ccco2)c2ccccc21 (centres undefined)	48.2%[activator]
COc1cc(SC)ccc1C(=O)NCCNC(=O)c1nonc1N	21.6%
O=Cc1c(Sc2ccccn2)nc2ccccn2c1=O	-9.9%
C[C@H](N)CCP(=O)(O)O	9.7%
O=C(O)c1ccc(N2CCCCS2(=O)=O)cc1	-1.4%
Cc1ccc(C)c(N2CCN(C(=O)c3c(C)oc4nc(C)nc(N5CCOCC5)c34)CC2)c1	15.9%
Cc1ccccc1C(=O)NC(=S)NCc1cccnc1	6.9%
COc1ccccc1CNc1ncccc1[N+](=O)[O-]	-17.3%
CC(C)c1c(O)nc(SCCC(=O)O)[nH]c1=O	1.4%
O=c1[nH]c(=O)n(Cc2ccccc2)c2nc(-c3ccc(Oc4ccc(F)cc4)c([N+](=O)[O-])c3)n(CCO)c12	-4.8%
CC(=O)Nc1ccc(S(=O)(=O)N(C)CC(=O)OCC(=O)N(C)C2CCS(=O)(=O)C2)cc1 (centres undefined)	?
Cc1ccccc1NC(=O)n1ncc2cc(Cl)ccc21	5.8%
O=C1NC(C(F)(F)F)(C(F)(F)F)N=C2SC=CN12	2.2%
CS(=O)(=O)c1cccc(-c2nnc(NC(=O)c3ccc4ncsc4c3)o2)c1	-2.7%
O=C(CN1C(=O)C(=O)N(C2CCCC2)C1=O)Nc1cc(Cl)ccc1[N+](=O)[O-]	-4.4%
CCN(CC)S(=O)(=O)c1ccc(NC(=O)CNC2CCCCC2)cc1	-9.6%
Cc1nn(Cc2ccccc2)c(Cl)c1C(=O)OCC#N	-2.4%
CN(CCOc1ccccc1)CC(=O)Nc1ccc([N+](=O)[O-])cc1Cl	-1.0%
CCOC(=O)C1CCN(C(=O)c2ccc(N(C)S(C)(=O)=O)cc2)CC1	-17.0%
Cc1nn(C)c2c1c(C(F)(F)F)cc(=O)n2C(C)C(=O)NCCc1ccccc1 (centres undefined)	6.0%
COc1cc(C(=O)NCCNc2nc3ccc(C)cc3cc2C#N)cc(OC)c1OC	18.8%
O=C(O)C[C@]1(C(=O)Nc2ccc(F)cc2)CC(/C=C/c2ccccc2)=NO1	9.9%
CCN(CCCNC(=O)c1nn(-c2ccc(C)cc2)c(=O)c2c1c1ccccc1n2C)c1ccccc1	-0.5%
COc1ccc(CC2(CO)CCN(S(=O)(=O)c3sccc3C)CC2)cc1	-11.0%
O=C(C1=C[C@H](c2coc3ccccc3c2=O)C[C@H](OCCCCO)O1)N1CCN(Cc2ccc3c(c2)OCO3)CC1	-2.3%
O=C(/C=C/c1ccc(Cl)cc1Cl)Nc1cccc(S(=O)(=O)NC2=NCCC2)c1	?
COc1cccc(C2=NOC(C(=O)NCCN3CCOCC3)C2)c1 (centres undefined)	23.6%
Cc1ccc(CN2C(=O)NC(Cc3c[nH]c4ccccc34)C2=O)cc1 (centres undefined)	-9.2%
COc1cccc(C(=O)Nc2ccccc2C(=O)OCc2cc(=O)n3c4c(sc3n2)CCCC4)c1	10.7%
CC(C)(C)Nc1nc(NCc2cccnc2)nc(N2CCOCC2)n1	-4.0%
O=C(OCC(=O)c1ccco1)c1ccc2ncsc2c1	-10.2%
COc1cc(CCC(=O)OCC(=O)Nc2ccccc2F)cc(OC)c1OC	2.1%
Cc1ccc(-n2nc3c(c2NC(=O)c2ccco2)CS(=O)C3)c(C)c1 (centres undefined)	-20.7%
COc1ccc(NCc2nc3ccccc3n2C)cc1	-0.7%
Cc1ccc(C)c(N2CCN(C(=O)c3ccc(-c4nc(COc5ccccc5)c(C)o4)cc3)CC2)c1	12.7%
Cc1cccc(-c2nnc(NC(=O)c3ccc(Cl)cc3)o2)c1	-1.4%
COc1ccc(Oc2ncc3nc(-c4ccc(Cl)cc4)c(=O)n(C)c3n2)cc1	-5.6%
CCN(CC)S(=O)(=O)c1ccc(C)c(C(=O)Oc2cccc(-c3cnc4ccccc4n3)c2)c1	-4.8%
COc1ccc(N(CC(=O)NCCC2=CCCCC2)S(=O)(=O)c2ccccc2)cc1	3.6%
O=c1c(C(c2c(O)nc3n(c2=O)CCS3)c2cccc3ccccc23)c(O)nc2n1CCS2	?
O=C(Cn1c[n+](CC(=O)c2ccc([N+](=O)[O-])cc2)cn1)c1ccc([N+](=O)[O-])cc1	?
COc1cccc(CNC(=O)Cn2cccc2C(=O)c2ccccc2C)c1	-12.9%
CCOCCCNC(=O)C(c1ccc(Cl)cc1)N(Cc1ccc2c(c1)OCO2)C(=O)c1ccc(NC(C)=O)cc1 (centres undefined)	-15.5%
COc1ccc2c(c1)C(=O)[C@@H](OC(=O)Nc1ccc(C)c(Br)c1)[C@H](c1ccc(OC)c(Br)c1)O2	-6.8%
CCC(=O)N1CCc2cc(Br)cc(S(=O)(=O)Nc3ccccc3C(=O)OC)c21	-10.9%
Cc1cc(C)n2cc(-c3ccc(Cl)cc3)c(C(=O)O)c2n1	-5.3%
Cc1oc(-c2ccccc2Cl)nc1CS(=O)(=O)CC(=O)N1CCOCC1	1.9%
O=C(NCc1ccccc1)c1ccc[n+]([O-])c1	5.7%
Cc1cccc(C)c1-n1ncc(C(=O)Nc2ccc3c(c2)OCO3)c1C1CCN(C(=O)OC(C)(C)C)CC1	5.7%
CCC(C)S(=O)(=O)c1oc(-c2cccs2)nc1S(=O)(=O)c1ccccc1 (centres undefined)	?
Cc1ccc(NS(=O)(=O)c2c(C(=O)N3CCCC3)c(C)n(C)c2C)cc1	9.9%
CC(C)C(NC(=O)c1c(F)cccc1F)C(=O)NCc1ccc(S(=O)(=O)N2CCOCC2)cc1 (centres undefined)	0.2%
O=C(CCCCn1cnc2c(=S)nc[nH]c21)Nc1ccc(C(=O)O)c(O)c1	-17.5%
O=C(C(=O)N1CCOCC1)c1cn(CC(=O)N2CCc3ccccc3C2)c2ccccc12	0.5%
Oc1[nH]c2ccc(Br)cc2c1N=Nc1ccc(C(F)(F)F)cn1	-18.3%

Screening results (PubChem BioAssay)

These rows are one share of the data; rates above refer to the full screens.
